CSC inhib: cancer stem cell viability inhibitors, primary screen, luminescence | cancer stem cell-like cells viability | inhibition, % at 7.5 µM | AID 2717, 2010 | 300,000 tested, 1.1% active;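 active means mean at 75% or more and at least half the replicates too; tested in HMLE shEcad cells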;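 further: 0% = median of negative and 100% = median of positive control wells; the first replicate is given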
UUG fidelity: modulators of yeast start codon fidelity, primary screen, whole organism, S. cerevisiae, single point, plate reader. S. cerevisiae UUG-firefly luciferase reporter, luminescence/redox ratio. 350,000 tested, 0.13% active. AID 602363, 2012. activity score, % at 18.7 µM;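 active means replicate mean at a twofold rise or more, about +100% in these data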;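 further: firefly luciferase made from a UUG start codon reports start codon fidelity; reporter light over untreated wells divided by growth signal over untreated wells; some hits fall short of that in this replicate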
eIF4H inh: human eIF4H binding inhibitors, primary screen, translation initiation inhibitor project, biochemical, uHTS, fluorescence polarization. Eukaryotic translation initiation factor 4H (Homo sapiens), Q15056. inhibition, % at 35 µM. 290,000 tested, 0.94% active. eIF4H fluorescence polarization binding assay;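 active means 50% or more with normal probe brightness, or confirmed in later tests; about a fifth of its hits are not listed in these tables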;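 further: calls also rest on retests at 20 µM and on dose response follow-up; 0% = protein and probe with vehicle and 100% = probe without protein; strong numbers were not always called active; many hits fall short of the cut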
Rce1 inhib: yeast Rce1p protease inhibitors, primary screen, biochemical, fluorescence, cell-free homogeneous. 290,000 tested, 0.27% active. yeast membranes, quenched prenylated peptide cleavage fluorescence. CAAX prenyl protease 2 (Saccharomyces cerevisiae (strain ATCC 204508 / S288c)), Q03530. calls only;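 active means fall in fluorescence gain of 50% or more versus controls, with final raw signal at or below 3038400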;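 further: plate controls were neutral control wells for no effect and wells lacking membranes for full effect; tested at 10 µM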
Target sequence (Q03530 whole entry, looked up): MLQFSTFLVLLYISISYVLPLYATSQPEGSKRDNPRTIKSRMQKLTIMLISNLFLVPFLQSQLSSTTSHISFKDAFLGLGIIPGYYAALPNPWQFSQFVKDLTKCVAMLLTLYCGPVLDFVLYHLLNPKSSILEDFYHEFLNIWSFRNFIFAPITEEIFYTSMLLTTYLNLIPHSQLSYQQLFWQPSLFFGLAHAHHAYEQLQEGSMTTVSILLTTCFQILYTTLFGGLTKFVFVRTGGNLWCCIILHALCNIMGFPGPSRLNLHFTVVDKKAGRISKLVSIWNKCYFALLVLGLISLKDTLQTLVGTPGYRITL
Env fusion inh: inhibitors of HIV-1 Env-driven cell-cell fusion, primary screen, HeLa-JRFL effector, CEM21 target cells, luciferase; 360,000 tested, 1.1% active; AID 651610, 2012; inhibition, % at 12.3 µM;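 active means mean replicate inhibition score of at least 50 and every replicate individually at or above 50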;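 further: 0% = plate neutral controls and 100% = maraviroc near 300 nM; one replicate is shown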
PABP FP inh: PABP poly(A) RNA binding inhibitors, primary screen, biochemical, fluorescence polarization, uHTS | AID 2014, 2009 | Polyadenylate-binding protein 1 (Homo sapiens), P11940 | 290,000 tested, 1% active | inhibition, % at 35 µM;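 active means 50% or more with normal probe brightness, or confirmed in later tests; about a fifth of its hits are not listed in these tables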;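 further: calls also rest on retests at 20 µM and on dose response follow-up; controls were probe without protein and protein plus probe with vehicle; some compounds called inactive have numbers as strong as hits; many hits fall short of the cut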
Target sequence (P11940 whole entry, looked up): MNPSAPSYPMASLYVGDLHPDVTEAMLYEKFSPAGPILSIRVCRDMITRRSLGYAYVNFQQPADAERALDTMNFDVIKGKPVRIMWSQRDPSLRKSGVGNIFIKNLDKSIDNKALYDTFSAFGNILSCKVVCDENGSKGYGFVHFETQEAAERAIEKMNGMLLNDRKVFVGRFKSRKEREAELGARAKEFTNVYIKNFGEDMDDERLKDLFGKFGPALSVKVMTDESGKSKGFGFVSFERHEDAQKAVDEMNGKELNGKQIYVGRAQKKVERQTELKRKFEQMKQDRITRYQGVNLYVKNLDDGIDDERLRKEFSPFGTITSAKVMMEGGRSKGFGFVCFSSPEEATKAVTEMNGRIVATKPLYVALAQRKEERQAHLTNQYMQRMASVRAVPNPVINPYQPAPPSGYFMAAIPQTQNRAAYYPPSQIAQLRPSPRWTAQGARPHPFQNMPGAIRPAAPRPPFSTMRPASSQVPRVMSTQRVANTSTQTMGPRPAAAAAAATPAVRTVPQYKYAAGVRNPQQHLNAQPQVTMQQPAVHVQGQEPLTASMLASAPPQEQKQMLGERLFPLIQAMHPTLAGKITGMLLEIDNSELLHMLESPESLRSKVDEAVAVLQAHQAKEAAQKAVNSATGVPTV
MT1-MMP act inh: blockers of MT1-MMP proenzyme processing, primary screen, HT1080 RFP-PRO-GFP cells, GFP/RFP fluorescence; Matrix metalloproteinase-14 (Homo sapiens), P50281; GFP/RFP ratio fluorescence, overnight; percent of plate control window, DMSO zero; GFP/RFP ratio change, % at 20 µM; 360,000 tested, 0.061% active; AID 651647, 2012;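 active means GFP/RFP ratio change of at least 30% with cell ATP level not reduced by more than half and red fluorescence within 50% of control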; further: strong numbers were not always called active
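Assay system – RFP-PRO-GFP reporter HT1080 cells · Compound dosing – single dose of 20 µM compound, 1% DMSO final · Incubation – overnight compound exposure at 37 °C · Measure – GFP/RFP fluorescence ratio · Benchmarks – DMSO wells and RFP-L50D-GFP cells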
MT1-MMP act inh RFP: recorded beside MT1-MMP act inh, whose call it bears; RFP signal change, %; measured here: RFP expression control read;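 0 = vehicle wells; hits needed this value within 50% of zero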
Active calls of the source: *. Compounds as they come, and some 3% of all compounds hit somewhere here.

`CN(C)CCCNC(=S)N(CCCO)Cc1cc2cc3c(cc2[nH]c1=O)OCO3` gave CSC inhib -18, UUG fidelity -22, eIF4H inh -6, Rce1 inhib inactive, Env fusion inh 5, PABP FP inh -1, MT1-MMP act inh -3 and MT1-MMP act inh RFP -1.
For O=C1NC(=O)C(c2ccc(Cl)cc2Cl)N1 (stereo unspecified) the results were UUG fidelity -10, Env fusion inh -8, MT1-MMP act inh -1 and MT1-MMP act inh RFP 3.
For Cc1ccccc1C(=O)NC1CC2CCCC(C1)N2C(=O)Nc1ccccc1 (stereo unspecified) the results were CSC inhib -14, UUG fidelity -8, eIF4H inh 6, Rce1 inhib inactive, Env fusion inh -3, PABP FP inh 4, MT1-MMP act inh 3 and MT1-MMP act inh RFP 1.
Screening COc1ccc(CNC(=O)Cn2nc([N+](=O)[O-])c(Br)c2C)cc1 returned CSC inhib -9, UUG fidelity -2, eIF4H inh -7, Rce1 inhib inactive, Env fusion inh 3, PABP FP inh 5, MT1-MMP act inh 1 and MT1-MMP act inh RFP 2.
Screening CCOc1ccc(N(C)S(=O)(=O)c2ccc3[nH]cc(C(=O)NCCCOC)c(=O)c3c2)cc1 returned CSC inhib -2, UUG fidelity -3, eIF4H inh -2, Rce1 inhib inactive, Env fusion inh 11, PABP FP inh 15, MT1-MMP act inh -2 and MT1-MMP act inh RFP -13.
`Cc1ccc(OCC(=O)Nc2cccc(S(=O)(=O)NC3=NCCCCC3)c2)cc1C` gave CSC inhib -5, UUG fidelity -10, eIF4H inh 2, Rce1 inhib inactive, Env fusion inh -7, PABP FP inh 11, MT1-MMP act inh 1 and MT1-MMP act inh RFP -3.
Screening COc1ccc(-c2csc3ncnc(NCCN4CCOCC4)c23)cc1 returned CSC inhib 47, UUG fidelity -22, eIF4H inh 0, Rce1 inhib inactive, PABP FP inh -3, MT1-MMP act inh -12 and MT1-MMP act inh RFP -9.
For O=C(C(Sc1ccccc1)c1ccccc1)N1CCN(c2ccccc2F)CC1 (stereo unspecified) the results were UUG fidelity -16, eIF4H inh 4, Rce1 inhib inactive, Env fusion inh -25, PABP FP inh -6, MT1-MMP act inh -7 and MT1-MMP act inh RFP -10.
CCOC(=O)c1ccccc1NC1c2ccccc2C(=O)N1c1ccc(C)cn1 (stereo unspecified) was read as UUG fidelity 6, eIF4H inh 0, Rce1 inhib inactive, Env fusion inh -54, PABP FP inh -10, MT1-MMP act inh 6 and MT1-MMP act inh RFP -9.
`CCCC1=NN(C(=O)CCc2ccccc2O)C(O)(C(F)(F)F)C1` (stereo unspecified) gave CSC inhib -1, eIF4H inh -2, Rce1 inhib inactive, Env fusion inh 10, PABP FP inh -2, MT1-MMP act inh -1 and MT1-MMP act inh RFP 2.
CC(c1ccccc1)n1c(N2CCN(C)CC2)nc2c1c(=O)[nH]c(=O)n2C (stereo unspecified) was read as CSC inhib -5, UUG fidelity 3, eIF4H inh -1, Rce1 inhib inactive, Env fusion inh -22, PABP FP inh 6, MT1-MMP act inh -5 and MT1-MMP act inh RFP -1.
CSc1nc(O)c(Cc2ccccc2)c(=O)[nH]1 was read as CSC inhib -16, UUG fidelity -21, eIF4H inh 0, Rce1 inhib inactive, Env fusion inh -43, PABP FP inh 2, MT1-MMP act inh -4 and MT1-MMP act inh RFP 1.
Screening CSc1ncccc1C(=O)N1CCN(S(=O)(=O)c2ccc(F)cc2)CC1 returned CSC inhib -12, UUG fidelity -4, eIF4H inh -4, Rce1 inhib inactive, Env fusion inh 2, PABP FP inh -1, MT1-MMP act inh 2 and MT1-MMP act inh RFP -1.
`COc1ccc(CC(=O)Nc2nc3ccc(F)cc3s2)cc1S(=O)(=O)N1CCOCC1` gave CSC inhib -4, eIF4H inh -4, Rce1 inhib inactive, PABP FP inh -10, MT1-MMP act inh -10 and MT1-MMP act inh RFP -9.
`CCCNC(=O)C1(C)CCN(Cc2ccc(-n3ccnc3)cc2)C1` (stereo unspecified) gave UUG fidelity -13, Env fusion inh -34, MT1-MMP act inh 1 and MT1-MMP act inh RFP 4.
`O=C(CCNC(=O)c1ccc(Br)cc1)NCCCc1ccccc1` gave UUG fidelity -9, Rce1 inhib inactive, Env fusion inh -12, MT1-MMP act inh 9 and MT1-MMP act inh RFP 0.
Cc1nc(SCC(=O)c2cc3ccccc3oc2=O)c(C#N)c(-c2ccccc2)c1C(=O)Nc1ccccc1 was read as CSC inhib 33, UUG fidelity -14, eIF4H inh 3, Rce1 inhib inactive, Env fusion inh 15, PABP FP inh -1, MT1-MMP act inh -17 and MT1-MMP act inh RFP -25.
Screening COc1ccc(N(CC(=O)Nc2cccnc2)S(=O)(=O)c2ccc(C)cc2)cc1Cl returned CSC inhib -11, UUG fidelity -13, eIF4H inh -2, Rce1 inhib inactive, Env fusion inh -16, PABP FP inh 1, MT1-MMP act inh -1 and MT1-MMP act inh RFP 1.
For Cc1ccc(S(=O)(=O)N2CCN(C(=O)c3sccc3-c3ccccc3)CC2)cc1 the results were CSC inhib -10, UUG fidelity 7, eIF4H inh -20, Rce1 inhib inactive, Env fusion inh 1, PABP FP inh -5, MT1-MMP act inh -7 and MT1-MMP act inh RFP -5.
Screening CN(C)CCCNC(=O)c1ccc(=O)[nH]n1 returned CSC inhib -7, UUG fidelity -14, eIF4H inh 91*, Rce1 inhib inactive, Env fusion inh -3, PABP FP inh 84*, MT1-MMP act inh 1 and MT1-MMP act inh RFP 2.

Not a retest: entries from further up.
For Cc1ccc(S(=O)(=O)N2CCN(C(=O)c3sccc3-c3ccccc3)CC2)cc1 the results were CSC inhib -10, UUG fidelity 7, eIF4H inh -20, Rce1 inhib inactive, Env fusion inh 1, PABP FP inh -5, MT1-MMP act inh -7 and MT1-MMP act inh RFP -5.
Screening CN(C)CCCNC(=O)c1ccc(=O)[nH]n1 returned CSC inhib -7, UUG fidelity -14, eIF4H inh 91*, Rce1 inhib inactive, Env fusion inh -3, PABP FP inh 84*, MT1-MMP act inh 1 and MT1-MMP act inh RFP 2.

(next part)
For CCCS(=O)(=O)NC(=O)C1(C)CCN(C(=O)c2cc(F)cc(F)c2)C1 (stereo unspecified) the results were UUG fidelity -24, Env fusion inh 1, MT1-MMP act inh 1 and MT1-MMP act inh RFP 0.
`CC1CCc2c(sc3ncnc(NCCN4CCOCC4)c23)C1` (stereo unspecified) gave CSC inhib 4, UUG fidelity -15, eIF4H inh -14, Rce1 inhib inactive, Env fusion inh 10, PABP FP inh -4, MT1-MMP act inh 3 and MT1-MMP act inh RFP 2.
O=C1c2ccccc2S(=O)(=O)N1Cc1ccccc1[N+](=O)[O-] was read as CSC inhib -15, UUG fidelity -3, eIF4H inh -2, Rce1 inhib inactive, Env fusion inh -1, PABP FP inh 3, MT1-MMP act inh 0 and MT1-MMP act inh RFP -3.
Screening CCN(CC)c1nc2n(c(=S)n1)CCS2 returned UUG fidelity -14, eIF4H inh 3, Rce1 inhib inactive, PABP FP inh 3, MT1-MMP act inh 2 and MT1-MMP act inh RFP 6.
Screening Cc1ccc(/C=N/NC(=O)c2nnn(-c3nonc3N)c2CN(C)C)o1 returned CSC inhib 6, UUG fidelity -20, eIF4H inh -2, Rce1 inhib inactive, Env fusion inh -3, PABP FP inh 2, MT1-MMP act inh -4 and MT1-MMP act inh RFP -1.
`CCO[C@H]1OC(C(=O)N2CCCCCCC2)=C[C@@H](C2CCCCC2)[C@@H]1CCCO` gave CSC inhib -21, UUG fidelity -12, eIF4H inh -7, Rce1 inhib inactive, Env fusion inh 20, PABP FP inh 1, MT1-MMP act inh 7 and MT1-MMP act inh RFP -1.
`CCN(CC)CC(O)COCCC12CC3CC(CC(C3)C1)C2` (stereo unspecified) gave CSC inhib 41, UUG fidelity -9, eIF4H inh 1, Rce1 inhib inactive, Env fusion inh 11, PABP FP inh 4, MT1-MMP act inh 4 and MT1-MMP act inh RFP 4.
For Cn1c(SCC(=O)NCCN2C(=O)CSC2=O)nnc1-c1ccccc1 the results were CSC inhib -7, eIF4H inh -4, Rce1 inhib inactive, Env fusion inh 12, PABP FP inh -1, MT1-MMP act inh 0 and MT1-MMP act inh RFP 8.
O=[N+]([O-])c1nn(-c2ccc3c(c2)OCCO3)n(O)c1=Nc1ccccc1 was read as CSC inhib 9, eIF4H inh -2, Rce1 inhib inactive, Env fusion inh -10, PABP FP inh 6, MT1-MMP act inh -1 and MT1-MMP act inh RFP -4.
Screening O=C(NN=C1CCCC1)c1cccs1 returned CSC inhib -24, eIF4H inh 4, Rce1 inhib inactive, Env fusion inh 7, PABP FP inh 3, MT1-MMP act inh 6 and MT1-MMP act inh RFP 5.
`O=C(NC1CCCCC1)N1CCN(c2ccccc2)CC1` gave CSC inhib 1, UUG fidelity -7, eIF4H inh 6, Rce1 inhib inactive, Env fusion inh -84, PABP FP inh -14, MT1-MMP act inh -5 and MT1-MMP act inh RFP 1.
Screening CC(C)(C)n1nc2c(c1NC(=O)c1ccccc1S(=O)(=O)C(F)F)CS(=O)(=O)C2 returned CSC inhib -10, UUG fidelity -23, eIF4H inh -16, Rce1 inhib inactive, Env fusion inh 5, PABP FP inh -1, MT1-MMP act inh 0 and MT1-MMP act inh RFP 0.
Screening Cn1c(SCc2ccc(F)cc2)nnc1-c1ccncc1 returned CSC inhib -5, UUG fidelity -12, eIF4H inh 4, Rce1 inhib inactive, Env fusion inh 8, PABP FP inh -5, MT1-MMP act inh 0 and MT1-MMP act inh RFP 2.
For C=CCN1CCOc2ccc(C)cc2S1(=O)=O the results were UUG fidelity 6, Env fusion inh -215, MT1-MMP act inh 1 and MT1-MMP act inh RFP 5.
Screening CCOC(=O)c1c(C)[nH]c(C(=O)COC(=O)CCC(=O)c2ccc3c(c2)OCCO3)c1C returned UUG fidelity 7, eIF4H inh -4, Rce1 inhib inactive, Env fusion inh -378, PABP FP inh 0, MT1-MMP act inh 4 and MT1-MMP act inh RFP 2.
`CS(=O)(=O)CCC(C(=O)OCc1ccc(Cl)cc1)N1C(=O)c2ccccc2C1=O` (stereo unspecified) gave CSC inhib 16, eIF4H inh -8, Rce1 inhib inactive, Env fusion inh 11, PABP FP inh -1, MT1-MMP act inh -6 and MT1-MMP act inh RFP -9.
Screening CCN(CC)CCOc1c(Br)ccc2c1sc1nc3n(c(=O)c12)CCC3 returned CSC inhib -7, UUG fidelity 10, eIF4H inh -7, Rce1 inhib inactive, Env fusion inh -265, PABP FP inh 15, MT1-MMP act inh -3 and MT1-MMP act inh RFP -3.
Screening CCOc1ccc(C(=O)N2CCN(c3ncccn3)CC2)cc1 returned CSC inhib -3, UUG fidelity -13, Env fusion inh 16, MT1-MMP act inh 2 and MT1-MMP act inh RFP 1.
Screening COc1ccc([C@H]2CC(=O)C=C(/C=C/c3ccc(Cl)cc3)C2)cc1 returned CSC inhib 22, UUG fidelity -11, Env fusion inh -63, MT1-MMP act inh 2 and MT1-MMP act inh RFP 0.
CCOC(=O)C1CCCCN1C(=O)c1ccc2nc(Cc3ccc(OC)cc3)oc2c1 (stereo unspecified) was read as CSC inhib 2, UUG fidelity 14, eIF4H inh -19, Rce1 inhib inactive, Env fusion inh 6, PABP FP inh 3, MT1-MMP act inh 0 and MT1-MMP act inh RFP -4.
Screening COc1ccccc1NC(=O)C[n+]1ccccc1C returned CSC inhib -5, UUG fidelity -16, eIF4H inh -5, Rce1 inhib inactive, Env fusion inh -13, PABP FP inh 1, MT1-MMP act inh -1 and MT1-MMP act inh RFP -1.
Screening COc1ccc(OCc2cccc(C(=O)Nc3ccc(CN4CCCCC4)cc3)c2)cc1 returned CSC inhib 47, eIF4H inh -7, Rce1 inhib inactive, Env fusion inh -9, PABP FP inh 0, MT1-MMP act inh 8 and MT1-MMP act inh RFP 0.

Source: PubChem BioAssay
